miR-21 reporter = qHTS Assay for Modulators of miRNAs and/orActivators of miR-21; HeLa miR-21 FLuc reporter, luciferase, 48 h; Potency, µM (series often up to 38.3 µM), inactives show at the highest dose reporter change, positive = more light; 340,000 tested, under 10 active; AID 2288, 2010; active = well fitted rising curve with a large enough effect; inconclusive = small, poorly fitted or top-dose-only effect; inactive = no such curve, though single readings can be large or run the other way;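 note: % of control where 0% means no effect; miR-21 action dims this reporter so a rising signal means less miR-21 action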
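HeLa cells stably expressing CMV-driven firefly luciferase with a downstream miR-21 binding sequence, endogenously expressing miR-21, were treated with titrations (up to about 40uM final) for 48 hours at 37 degree Celsius. Luciferase luminescence was read after lysis.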
* = called active by the depositor; ? = inconclusive. The list is partial, so the mix of outcomes need not match the whole.

SMILES	miR-21 reporter
COc1ccc(NS(=O)(=O)c2cc(-c3onc(C)c3C)ccc2C)c(OC)c1	0.2%
COc1ccc(-c2cn3nc(SCC(=O)Nc4ccccc4F)ccc3n2)cc1	9.6%
Clc1cccc(-n2ncc3c(NCCCn4ccnc4)ncnc32)c1	-52.4%
CCOc1ccccc1CNC(=O)c1cc(-c2ccc(OC)cc2)nc2ccc(C(C)C)cc12	-1.7%
Cn1c(SCC(=O)Nc2ccccc2F)nc2c([nH]c3ccccc32)c1=O	-2.3%
CCCc1nn2c(=O)cc(COC(=O)C3CCCCC3)nc2s1	-1.2%
CCCCn1c(=NC(=O)C(C)(C)Oc2ccc(Cl)cc2)c(C(=O)OCC)cc2c(=O)n3ccccc3nc21	-3.2%
CCc1cccc(C)c1Nc1c(-c2ccccc2)nc2sccn12	-0.5%
COc1ccc(CN2CCc3c(c(=O)n4ncc(C(=O)N5CCN(c6ccc(F)cc6)CC5)c4n3C)C2)cc1	27.6%
COc1ccc(CCNC(=O)C(=O)NCC(c2cccs2)S(=O)(=O)c2cccs2)cc1 (centres undefined)	26.9%
COc1cc(NC(=O)c2nc3cc(C)c(C)cc3n(C)c2=O)cc(OC)c1OC	-6.7%
CC(=O)c1cc(-c2ccccc2)n(CCC(=O)NCc2ccc(C)cc2)c1C	-0.7%
COc1ccc(-c2cn3nc(N4CCC(C(=O)NCc5ccc(F)cc5)CC4)sc3n2)cc1	-31.3%
Cc1ccc(NC(=O)/C=C/c2ccccc2)c(Br)c1	-41.5%
Clc1ccccc1CN1CCc2nc(N3CCN(c4ncccn4)CC3)ncc2C1	14.3%
COc1ccc(OC)c(NC(=O)N2CCN(Cc3nc4ccc(C)cc4o3)CC2)c1	-0.7%
O=c1cc2nc(-c3ccccc3F)nc(SCc3ccc(Br)cc3)n2[nH]1	-30.9%
COc1ccc(CCNC(=O)c2cnc3sc(N4CCCC4)nn3c2=O)cc1OC	3.7%
Cc1cc(O)c2c(C)c(CC(=O)NCc3ccccc3Cl)c(=O)oc2c1	-16.0%
COc1ccccc1CNC(=O)CN1C(=O)CCCc2ccccc21	-8.4%
CCC(=O)Nc1ccccc1C(=O)OCc1cc(=O)n2cc(C)sc2n1	-34.6%
Cc1ccc(C)c(S(=O)(=O)NCC(c2ccco2)S(=O)(=O)c2ccc(F)cc2)c1 (centres undefined)	?
O=C(CSc1nc2c([nH]c3ccccc32)c(=O)n1-c1ccc(F)cc1)NCc1ccccc1	0.3%
CC(C(=O)NCc1ccccc1Cl)n1ccc2cc(S(=O)(=O)N3CCCCC3)ccc21 (centres undefined)	20.9%
O=C(Cn1cc(S(=O)(=O)Cc2ccc(F)cc2)c2ccccc21)NCCc1ccccc1	4.1%

Quoted at random: six entries already listed, in no set order.
SMILES	miR-21 reporter
CCCc1nn2c(=O)cc(COC(=O)C3CCCCC3)nc2s1	-1.2%
COc1ccc(CN2CCc3c(c(=O)n4ncc(C(=O)N5CCN(c6ccc(F)cc6)CC5)c4n3C)C2)cc1	27.6%
CC(=O)c1cc(-c2ccccc2)n(CCC(=O)NCc2ccc(C)cc2)c1C	-0.7%
CCC(=O)Nc1ccccc1C(=O)OCc1cc(=O)n2cc(C)sc2n1	-34.6%
O=c1cc2nc(-c3ccccc3F)nc(SCc3ccc(Br)cc3)n2[nH]1	-30.9%
Clc1ccccc1CN1CCc2nc(N3CCN(c4ncccn4)CC3)ncc2C1	14.3%

Back to the main list with the 5 entries that preceded the break.
SMILES	miR-21 reporter
CCC(=O)Nc1ccccc1C(=O)OCc1cc(=O)n2cc(C)sc2n1	-34.6%
Cc1ccc(C)c(S(=O)(=O)NCC(c2ccco2)S(=O)(=O)c2ccc(F)cc2)c1 (centres undefined)	?
O=C(CSc1nc2c([nH]c3ccccc32)c(=O)n1-c1ccc(F)cc1)NCc1ccccc1	0.3%
CC(C(=O)NCc1ccccc1Cl)n1ccc2cc(S(=O)(=O)N3CCCCC3)ccc21 (centres undefined)	20.9%
O=C(Cn1cc(S(=O)(=O)Cc2ccc(F)cc2)c2ccccc21)NCCc1ccccc1	4.1%
CCOC(=O)c1ccc(NC(=O)CC(C)n2nc(C)cc2C)cc1 (centres undefined)	-1.1%
COCCCNC(=O)CSc1nc2nc(C)c(Cc3ccccc3Cl)c(C)n2n1	1.5%
CCn1cc(C(=O)N2CCN(c3ccccc3F)CC2)c(=O)c2cc(S(=O)(=O)N(C)C3CCCCC3)ccc21	-6.4%
CCc1cccc(CC)c1N(COC)C(=O)Cn1c(CC)nc2ccccc21	-49.8%
COc1ccc(C(C)=O)cc1CSc1nc(NCc2ccc(Cl)cc2)c2ccccc2n1	-2.2%
COc1ccc(OC)c(NC(=O)N2c3ccccc3Sc3ccccc32)c1	-16.0%
CCCOc1ccc(-c2nc3ccccc3c(=O)o2)cc1	3.7%
CCOC(=O)c1c(NC(=O)c2ccc(S(=O)(=O)N(C)C3CCCCC3)cc2)sc2c1CCN(C(C)C)C2	14.9%
Cc1noc(C)c1S(=O)(=O)N1CCC(C(=O)N2CCN(c3ccccc3)CC2)CC1	1.8%
COc1ccc(CCNC(=O)c2ccc(Cn3c(=O)[nH]c4cc(OC)c(OC)cc4c3=O)cc2)cc1OC	3.1%
O=C(NCc1cccs1)c1ccc(CSc2nc3cccnc3n2Cc2ccccc2)cc1	0.4%
O=C(Nc1ccc(Cl)cc1Cl)c1cc(S(=O)(=O)N2CCCCCC2)ccc1F	-3.9%
CN(C)c1ccc(-c2nnc3n(Cc4ccccc4)c(=O)c4ccccc4n23)cc1	-0.1%
COc1ccccc1NC(=O)N1CCN(c2nnc(C)c3c(C)n(-c4ccccc4)nc23)CC1	-1.6%
CCOc1cc(CNC(=O)Cn2c(=O)c3cccn3c3ccc(F)cc32)cc(OCC)c1OCC	-4.7%
CCOc1cc(C2CC(=O)Nc3nc(SCc4ccccc4)[nH]c(=O)c32)ccc1O (centres undefined)	16.8%
Cc1c(NC(=O)c2ccc(Br)o2)cccc1-c1nc2ccccc2o1	6.7%
CCOC(=O)c1sc2ccccc2c1S(=O)(=O)Nc1ccc(C(C)=O)cc1	-45.1%
Cc1ccc(CNC(=O)c2ccc(-c3nc(CS(=O)(=O)c4ccc(C)cc4)c(C)o3)cc2)cc1	2.5%
CCCCn1c(SCc2ccccc2C)nc2ccsc2c1=O	0.6%
COC(=O)C(Cc1c[nH]c2ccccc12)NC(=O)COc1ccc(Cl)cc1Cl (centres undefined)	-8.6%
CCSc1nc(-c2ccccc2F)nc2c1Cc1c(CO)cnc(C)c1O2	-5.2%
Cc1ccc(N(CC(=O)N2CCN(c3cccc(C)c3C)CC2)S(=O)(=O)c2c(C)nn(C)c2C)cc1	?
COc1cc(NC(=O)N2CCc3c(sc4c3CCCC4)C2c2ccccc2)cc(OC)c1OC (centres undefined)	22.3%
O=S(=O)(c1ccccc1)n1nc(-c2ccc(Cl)cc2)nc1NCc1ccccc1	-16.2%

(listing goes on)
SMILES	miR-21 reporter
COc1ccc(-c2nc3sc(CCNC(=O)c4ccccc4C)c(C)n3n2)cc1	0.5%
CCc1ccc(CN2CCc3nc(N4CCN(CC)CC4)ncc3C2)cc1	1.5%
O=C(c1cccs1)N1CCCc2cc(NS(=O)(=O)c3ccc(F)cc3)ccc21	-6.0%
COc1cc(NC(=O)C(NS(=O)(=O)c2ccc3c(c2)CCCC(=O)N3)C(C)C)cc(OC)c1 (centres undefined)	11.6%
CC(=O)N1c2ccccc2C(=O)C1N1CCN(c2ccc(Cl)cc2)CC1 (centres undefined)	4.8%
CCCN(C(=O)Cn1cnc2sc(C)c(S(=O)(=O)N3CCN(c4ncccn4)CC3)c2c1=O)c1cccc(C)c1	-3.8%
COc1cc(NC(=O)CN2CCCN(S(=O)(=O)c3ccc(F)cc3)CC2)cc(OC)c1	-0.9%
CCS(=O)(=O)c1nc(S(=O)(=O)c2ccc(C)cc2)c(NCc2ccccc2Cl)s1	-4.3%
O=C(CCC(=O)N1CCSc2ccccc21)Nc1ccc(Cl)cc1	14.2%
Cc1c(Cl)cccc1NC(=O)c1cc(-c2cccs2)on1	-33.1%
COC(=O)c1ccc(NC(=O)CC2C(=O)N(c3cccc(F)c3)C(=O)N2CC(C)C)cc1 (centres undefined)	19.0%
COc1ccccc1N1CCN(S(=O)(=O)CCNC(=O)Cc2ccc(Cl)cc2)CC1	18.8%
Cc1cccc(NC(=O)CSc2nnc3scc(-c4ccccc4)n23)c1	3.5%
Cc1ccc2oc(C(=O)Nc3nc(-c4ccc(F)cc4)ns3)c(C)c2c1	8.8%
CCOc1ccc(C(=O)OCc2cc(=O)n3nc(C4CCCCC4)sc3n2)cc1	-0.2%
COc1ccc(C2=NN(CCC(=O)NCCc3ccccc3)C(=O)CC2)cc1	-2.3%
O=C(NCCc1ccccc1Cl)c1ccc(Cn2c(=O)c3cccn3c3cccnc32)cc1	-15.1%
CCOC(=O)c1c(C)[nH]c(C)c1S(=O)(=O)NCC(=O)N1CCN(c2cccc(C)c2)C(C)C1 (centres undefined)	0.3%
Cc1ccccc1OCC(=O)N1CCC(c2nc3ccccc3s2)CC1	2.6%
CC(=O)Nc1ccc(C)cc1-c1nc2ccccc2n(CC(=O)c2ccc(Cl)cc2)c1=O	-0.7%
Cc1ccc(N2CCN(c3nc4ccccc4c4nnc(C)n34)CC2)c(C)c1	9.5%
Cc1ccc(NC(=O)c2ccc(F)c(S(=O)(=O)NCCc3ccccc3)c2)cc1F	?
CCc1cccc(NC(=O)C2Cc3ccccc3N2C(=O)c2ccccc2)c1 (centres undefined)	-0.5%
CC1=C(c2cccc(Cl)c2)S(=O)(=O)NC1=NCc1ccccc1C	-10.6%
CCN(c1ccc(C)cc1)S(=O)(=O)c1nnc(NC(=O)c2cccs2)s1	-59.8%

Continuation:
SMILES	miR-21 reporter
COc1ccc(CNC(=O)CN2N=C(c3ccccc3)CCC2=O)c(OC)c1	-8.7%
CCOCCCNC(=O)c1c(NC(=O)Cc2coc3c(C)c(C)ccc23)sc2c1CCC2	0.5%
CC1CCN(S(=O)(=O)c2ccc3c(c2)CCN3)CC1	-1.1%
Cc1ccc(NC(=O)C2(c3cccs3)CCOCC2)cc1Cl	-3.2%
CCOc1ccc(C(=O)c2cn(CC(=O)Nc3ccc(F)cc3)c3cc4c(cc3c2=O)OCCO4)cc1	-2.3%
COc1cc(NC(=O)Cc2c(C(=O)O)c(C)cn2C)cc(OC)c1	-2.5%
COc1ccc(S(=O)(=O)Nc2cc(-c3cn4ccc(C)cc4n3)ccc2C)cc1OC	-17.9%
CC(C)OC(=O)c1c(NC(=O)c2cc3nc(-c4ccccc4)cc(C(F)(F)F)n3n2)sc2c1CCCC2	1.1%
O=C(Nc1ccc(N2CCC(c3ccccc3)C2)c(C(=O)O)c1)c1ccc(Cl)cc1 (centres undefined)	7.3%
COc1ccc(N2C(=O)CS(=O)(=O)C23C(=O)N(Cc2ccc(C)cc2)c2ccccc23)cc1Cl (centres undefined)	1.6%
Cc1c(C(=O)N2CCC(C(=O)Nc3ccc(F)c(Cl)c3)CC2)sc2nc[nH]c(=O)c12	-4.5%
Cc1ccc(CNC(=O)c2cc(-c3ccc(C)cc3)nc3n[nH]c(-c4cccc([N+](=O)[O-])c4)c23)cc1	-5.7%
Fc1ccc(Nc2nc3ccccc3c3nncn23)c(Cl)c1	1.6%
CCOc1ccc(CC(=O)NCc2ccc3c(c2)CCN3C(=O)c2ccccc2)cc1OCC	21.4%
COc1ccc(CNC(=O)CCc2c(C)nc3c4cccnc4nn3c2C)cc1	-0.3%
Cc1cc(C)cc(OCC(=O)N(Cc2ccc(Cl)cc2)C2CCS(=O)(=O)C2)c1 (centres undefined)	15.1%
COc1ccc2c(CNCc3ccccc3OC)c(C(=O)O)n(Cc3ccc(F)cc3Cl)c2c1	?
COc1ccc(Br)c(C(=O)Nc2cc3c(cc2N2CCOCC2)n(C)c(=O)n3C)c1	-11.2%
COc1ccc(NC(=O)CN(c2ccc(C)cc2)S(=O)(=O)c2cccc3nonc23)cc1OC	-13.0%
Cc1cc(=O)[nH]c2nnc(SCc3c(F)cccc3Cl)n12	-5.8%
CCOc1ccc(-n2ccnc2SCC(=O)Nc2ccc(OC)cc2OC)cc1	0.1%
CC(=O)N1c2ccc(S(=O)(=O)Nc3ccc(C)c(Cl)c3)cc2CC1C (centres undefined)	20.0%
Cc1c(CNC2CCCCC2)c(C(=O)O)c(C)n1Cc1ccc(Cl)cc1	-4.4%
O=C(Nc1ccccc1C(F)(F)F)C1CCN(S(=O)(=O)c2ccccc2)CC1	4.2%
O=C(COc1ccccc1)OCc1cc(=O)n2nc(-c3cccs3)sc2n1	-11.2%

Some of these compounds in order of the miR-21 reporter value, highest first:
SMILES	miR-21 reporter
COc1ccc(N2C(=O)CS(=O)(=O)C23C(=O)N(Cc2ccc(C)cc2)c2ccccc23)cc1Cl (centres undefined)	1.6%
Cc1cc(=O)[nH]c2nnc(SCc3c(F)cccc3Cl)n12	-5.8%
COc1ccc(NC(=O)CN(c2ccc(C)cc2)S(=O)(=O)c2cccc3nonc23)cc1OC	-13.0%

Later entries:
SMILES	miR-21 reporter
Cc1ccc(C)c(NS(=O)(=O)c2ccc3c4c(cccc24)C(=O)N3)c1	?
CCn1c(C)c(C)c2cc(C(=O)NCc3ccc(F)cc3)ccc21	-14.3%
CCc1ccc(Oc2c(C(F)(F)F)oc3c(CN4CCN(CC)CC4)c(O)ccc3c2=O)cc1	13.2%
Cc1ccc(NC(=O)OCc2cccs2)cc1	-68.4%
COc1ccc(-c2nsc(NC(=O)c3ccccc3Br)n2)cc1	-34.2%
Cn1c(SCC(=O)N2CCCc3ccccc32)ncc(C(=O)Nc2ccccc2)c1=O	-13.9%
COc1ccc(C(=O)CN2C(=O)N(c3cc(C)cc(C)c3)S(=O)(=O)c3ccccc32)cc1	-1.2%
Cc1ccc(C)c(Nc2cc(C(=O)NC3CCCC3)c3ccccc3n2)c1	1.7%
Cc1nnc(N2CCN(c3cccc(Cl)c3)CC2)c2c1nnn2Cc1ccc(F)cc1	5.8%
Cc1ccc(OCC(=O)OC2=C(C(=O)c3ccccc3)N(C)S(=O)(=O)c3ccccc32)cc1	25.3%
